# VDR inh: blocks the human vitamin D receptor | P11473 | VDR-SRC2-3 peptide fluorescence polarization, 2 h | Potency, µM, without a hit: max response, negative = inhibition, usual class: inhibitors | actives 0.93% (n = 400,000); active = well fitted inhibition curve with a large enough effect; inconclusive = small, poorly fitted or top-dose-only effect, or another doubt; inactive = no such curve, though single readings can be large or run the other way; also: series mostly up to about 120 µM
# Target sequence (P11473 whole entry, looked up): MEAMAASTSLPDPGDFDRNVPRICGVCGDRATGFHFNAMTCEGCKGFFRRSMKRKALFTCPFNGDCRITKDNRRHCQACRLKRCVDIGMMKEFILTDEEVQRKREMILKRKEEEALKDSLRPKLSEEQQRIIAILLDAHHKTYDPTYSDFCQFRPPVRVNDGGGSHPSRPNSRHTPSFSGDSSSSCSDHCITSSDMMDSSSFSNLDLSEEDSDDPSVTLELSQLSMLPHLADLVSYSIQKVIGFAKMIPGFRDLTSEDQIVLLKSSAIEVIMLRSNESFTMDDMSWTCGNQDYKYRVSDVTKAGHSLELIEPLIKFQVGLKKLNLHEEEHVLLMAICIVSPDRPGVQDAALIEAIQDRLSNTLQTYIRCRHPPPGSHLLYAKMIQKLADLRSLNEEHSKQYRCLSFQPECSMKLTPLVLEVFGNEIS
#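 Fluorescence polarization assay measuring small-molecule disruption of VDR binding to the coregulator peptide SRC2-3. Compounds were pin-transferred (23 nl) into the reagent mix and incubated 2 h at room temperature before reading.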
# * marks the source's active call; other numbers are inactive results; ? = inconclusive; & = joins results of further samples; [ ] = another dose, or the depositor's remark. % is scaled to controls: 0 for no effect and ±100 for the full control effect; potency is read from the fitted curve at half-maximal effect.
SMILES,VDR inh
O=C(/C=C/Nc1ccc(F)c(F)c1)c1cccs1,-20%
CCOc1cccc(-c2c(C(=O)N/N=C/c3cccs3)nnn2-c2nonc2N)c1,-8%
C=CCSc1nnc(CSc2nc3sc4c(c3c(=O)[nH]2)CCCC4)n1-c1ccccc1,-18%
Cc1ccc(C(=O)NC(=S)Nc2cccnc2Cl)cc1,3%
CCOc1ccc2nc(NC(=O)c3nc(SCc4ccccc4C)ncc3Cl)sc2c1,21%
COc1ccc(CN2CCN(C(=O)CC(C)C)CC2)cc1,-2%
Cn1c(N2CCCCC2)nc2c1c(=O)[nH]c(=O)n2C,4%
COC(=O)c1ccc(NS(=O)(=O)c2c(C)[nH]c(C)c2C(=O)N2CCCC2)cc1,-17%
CCCc1nc2ccccc2c(=O)n1/N=C/c1ccccc1O,11%
O=C(c1ccccc1)c1ccc(C(=O)N2CCCC(C(F)(F)F)C2)cc1 (centres undefined),-1%
Cc1csc2ncnc(N3CCN(C(=S)Nc4ccc(F)cc4F)CC3)c12,-12%
CCNC(=O)N1CCN(S(=O)(=O)c2ccc3c(c2)OCCCO3)CC1,-6%
CC(=O)Nc1ccc2c(c1)C(=Nc1cccc(C)c1)c1ccccc1-2,-5%
Cc1ccc(Cl)cc1NC(=O)c1cc(CN2CCCC2)on1,14%
NC(=O)C(=O)N/N=C/c1c2ccccc2cc2ccccc12,28%
CC(OC(=O)c1ccccn1)C(=O)Nc1ccc(C(F)(F)F)cc1 (centres undefined),2%
COc1ccc(C(=O)CN(CCC(=O)O)S(=O)(=O)c2ccc([N+](=O)[O-])cc2)cc1,1%
N/C(=N\OC(=O)Cc1ccccc1[N+](=O)[O-])c1ccncc1,-5%
Cc1cc(C)nc(N/C(=N\S(=O)(=O)Cc2ccccc2)Nc2ccc(F)c(Cl)c2)n1,-14%
COc1ccc(-c2nc(-c3ccncc3)no2)cc1,-15%
CCOC(=O)COc1ccc(CC)cc1C(=O)c1ccn2nc(-c3ccc(Cl)cc3)cc2n1,42%[activator]
Nn1nnc2ccccc21,-3%&10%
Cc1ccc(C)c(NC(=O)COC(=O)CCc2ccc(S(=O)(=O)N3CCOCC3)cc2)c1,6%
CC(NC(=O)Nc1ccc(F)cc1F)c1ccc2c(c1)OCO2 (centres undefined),27%
COCOc1cc(O)c2c(=O)c(OCOC)c(-c3ccc(OCOC)c(OCOC)c3)oc2c1,17%
# Going on with the list.
SMILES,VDR inh
O=S1(=O)N=C(Nc2ccc(N3CCOCC3)c(Cl)c2)c2ccccc21,6%
O=C(CCCCCNC(=O)c1ccccc1)C[N+](=O)[O-],?
O=C(OC(C(=O)NCc1ccco1)C(OC(=O)c1ccccc1)C(=O)NCc1ccco1)c1ccccc1 (centres undefined),6%
CCN(C(=O)c1cnc(OC)cc1C(F)(F)F)c1ccc(Cl)cc1,24%
Cc1ccc(NC(=O)COC(=O)CCC(=O)c2ccc(Cl)cc2)cc1S(=O)(=O)N(C)C,-9%
COc1cccc(C2CCCN2Cc2nc(CC3CC3)no2)c1 (centres undefined),-6%
CSc1nc(N(C)C)c2ccccc2n1,3%
COc1ccc(N(CC(=O)Nc2ccccc2C(=O)NCCc2ccccc2)S(C)(=O)=O)cc1OC,9%
O=C(OCC(=O)N1CCCC1=O)c1cccc(S(=O)(=O)N2CCOCC2)c1,-2%
CS(=O)(=O)N(CC(=O)N1CCN(c2cccc(Cl)c2)CC1)C1CCCCC1,0%
CSc1nnc(-c2cccn(Cc3ccccc3)c2=O)o1,-4%
COC(=O)c1c(C(=O)OC)c(-c2cccc(C)c2)n2c1CS(=O)C2 (centres undefined),12%
O=C(NCc1cccnc1)c1nc(-c2ccc(C(F)(F)F)cc2)no1,-5%
COc1ccc(C(NC(=O)/C=C/c2ccco2)c2ccc(OC)c(OC)c2)cc1 (centres undefined),-12%
CCOC(=O)[C@@H]1[C@H]2COc3ccc(Br)cc3[C@@H]2N2C(=O)N(c3cccc(Cl)c3)C(=O)[C@@]12C,-9%
NC(=O)COC(=O)/C=C/c1ccccc1[N+](=O)[O-],-20%
CC(C)(C)c1ccc(S(=O)(=O)Nc2ccccn2)cc1,-11%
COc1ccc(CN2CCN(Cc3cc4ccccc4o3)CC2CCO)cc1C (centres undefined),-6%
COc1ccc(C(=O)NC2CC2)cc1OC1CCN(Cc2ccc(F)cc2Cl)CC1,1%
CCOC(=O)c1c(-c2ccc(C)c(C)c2)csc1NC(=O)C1CC=CCC1C(=O)O (centres undefined),-16%
COc1cc(OC)c(CN2CCC(CO)(CCOc3ccccc3)CC2)c(OC)c1,-6%
C=CCN1C(=O)C2(/C(=C(\O)c3ccc4c(c3)OCCO4)C(=O)C(=O)N2CCCOC)c2ccccc21 (centres undefined),5%
COc1ccc(-c2cc(C(F)(F)F)nc(SCC(=O)NCCCN3CCOCC3)n2)cc1,-13%
CCc1ccccc1NC(=O)CN(C)S(=O)(=O)c1ccc(-c2ccc(=O)[nH]n2)s1,10%
COc1cccc(NC(=O)N(Cc2cn(C)c3ccccc23)C2CCCCCC2)c1,-17%

# Gathered by group: the entries above containing a COOH group
SMILES,VDR inh
COc1ccc(C(=O)CN(CCC(=O)O)S(=O)(=O)c2ccc([N+](=O)[O-])cc2)cc1,1%
CCOC(=O)c1c(-c2ccc(C)c(C)c2)csc1NC(=O)C1CC=CCC1C(=O)O (centres undefined),-16%

# A second format for some results above:
VDR inh | molecule
-9% | CCOC(=O)[C@@H]1[C@H]2COc3ccc(Br)cc3[C@@H]2N2C(=O)N(c3cccc(Cl)c3)C(=O)[C@@]12C
-20% | NC(=O)COC(=O)/C=C/c1ccccc1[N+](=O)[O-]
-11% | CC(C)(C)c1ccc(S(=O)(=O)Nc2ccccn2)cc1
-6% | COc1ccc(CN2CCN(Cc3cc4ccccc4o3)CC2CCO)cc1C (centres undefined)

# Other records follow.
SMILES,VDR inh
CN(C)c1ccc(CN(C(=O)COc2ccc(F)cc2)C2CCS(=O)(=O)C2)cc1 (centres undefined),19%
CCOc1ccc(S(=O)(=O)NCCc2c(C)[nH]c3c(Cl)cccc23)cc1C,0%
Cc1cc(NC(=O)CSCC(=O)NC(C)c2ccccc2)no1 (centres undefined),9%
CCN(CC)CCNC(=O)Cn1ncc2ccccc2c1=O,8%
Cc1ccc(C(=O)N2CCC(C(N)=O)CC2)cc1C,6%
O=C(c1cccn2c(=O)c3cc(Cl)ccc3nc12)N1CCOCC1,-5%
O=C(COC(=O)CCc1c[nH]c2ccccc12)NCc1ccc(Cl)cc1,-12%
CC(NC(=O)c1ccccc1O)c1ccccc1 (centres undefined),-4%
NNC(=O)c1sc2nc(N3CCOCC3)c3c(c2c1N)CCCC3,4%
CC(=O)N1CCN(S(=O)(=O)c2ccc3c(c2)CC(=O)N3)CC1,5%
CC1(c2nnc(-c3cccc(Cl)c3)o2)CC(c2ccccc2Br)=NO1 (centres undefined),-11%
O=[N+]([O-])c1ccc(NCCCN2CCOCC2)c([N+](=O)[O-])c1,-3%
COc1cccc(C(=O)N/N=C(/CCC(=O)O)c2ccccc2)c1,-8%
COCCOC(=O)C1=C(C)NC(=S)NC1c1ccc(OCC(=O)N2CC(C)OC(C)C2)c(OC)c1 (centres undefined),-11%
Cc1ccc(C(=O)NNC(=S)NCC2CCCO2)cc1[N+](=O)[O-] (centres undefined),-14%
Cc1cc(-c2nnc(CCC(=O)NC(C)c3ccc(F)cc3)o2)no1 (centres undefined),11%
Cc1cccc(C)c1OCC(=O)Nc1cc(Cl)ccc1-n1cncn1,3%
COc1ccc(S(=O)(=O)c2c(Nc3ccc(C)cc3C)sc(C(=O)c3ccc(F)cc3)c2N)cc1,8%
COc1ccccc1-c1nnc(SCC(=O)NC2CC2)n1C,?
Nc1c(C(=O)OCC(=O)NCc2ccccc2)[nH]c(=O)[nH]c1=O,15%
O=C(c1ccc(S(=O)(=O)N2CCCCC2)cc1)N1CCN(CCN2C(=O)c3cccc4cccc(c34)C2=O)CC1,2%
CC(=O)c1ccccc1NS(C)(=O)=O,-4%
COc1ccc(Cl)cc1NC(=O)c1ccco1,8%
O=C(O)c1ccc(COc2ccc(/C=N/NC(=O)c3cccs3)cc2)cc1,-8%
O=C(O)/C=C/c1cccc2c1OCCO2,0%
# Remaining list, next part:
SMILES,VDR inh
Cc1ccc2c(c1)C1OCCC1C1N2C(=O)C2C(C(=O)O)C3C=CC21O3 (centres undefined),26%
COC(=O)C1CCN(C(=O)N2CCOCC2)CC1,7%
O=C(CSc1nnnn1C1CCCC1)Nc1ccc2c(c1)OCCO2,19%
O=C(O)c1ccc(CCCc2ccccc2)cc1,0%
CC1CN(S(=O)(=O)c2cccc3cnccc23)CCN1 (centres undefined),-6%
Cc1ccc(N(CC(N)=O)C2SC(=O)N(Cc3cccc(C(=O)O)c3)C2=O)cc1 (centres undefined),9%
Cn1c(=O)c2c(ncn2CC(=O)OCC(=O)Nc2sccc2C(N)=O)n(C)c1=O,-6%
Cc1cccc(N2C(=O)N3[C@H](c4ccc(Br)cc4)[C@@H]4C(=O)N(C(C)(C)C)C(=O)[C@@H]4[C@]3(Cc3ccc(Cl)cc3)C2=O)c1,-12%
O=C(COC(=O)c1ccccc1Nc1ccccc1)NCc1ccccc1Cl,-11%
CCN(CC(=O)Nc1ccc2c(c1)OCCO2)C(=O)c1ccc([N+](=O)[O-])s1,-14%
Cc1ccc(CN(C(=O)COc2ccc([N+](=O)[O-])cc2)c2ccccn2)o1,9%
Cc1ccc(C)c(CSc2nnc(-c3cccnc3)o2)c1,-3%
Cc1cc(C)n2cc(CSc3ccccn3)nc2n1,9%
CCOC(=O)C1CCN(c2c(N(C)Cc3ccco3)c(=O)c2=O)CC1,10%
CC(=O)N1c2ccc(S(=O)(=O)NCC3CCC(C(=O)N(C)Cc4ccccc4)CC3)cc2CC1C (centres undefined),-4%
Fc1ccc(-n2ncc3c(NCCCc4ccccc4)ncnc32)cc1,7%
CCOC(=O)C1CCN(CC(=O)NC(=O)NC2CCCCC2)CC1,-3%
COc1ccc2oc(=O)c(-c3nc(-c4ccc(C)c(C)c4)cs3)cc2c1,-7%
CC1(C)CC(NNCCC#N)=CC(=[N+]2CCCC2)C1,0%
O=C(COC(=O)CNC(=O)C1CCCCC1)Nc1ccc(Cl)cn1,-5%
CCOC(=O)N1CCN(C(=O)C2CCN(C(=O)c3cc(OC)cc(OC)c3)CC2)CC1,-1%
COc1ccccc1N1CCN(C(=O)CCc2c(C)nn(-c3ccc(N4CCCC4)nn3)c2C)CC1,8%
CCOC(=O)C(=O)Nc1ccccc1C(=O)NC(C)C,1%
CC1=C(C(=O)N(C)C)C(c2ccc(C)s2)NC(=S)N1 (centres undefined),0%
CCOC(=O)N1CCC(NC(=O)CCS(=O)(=O)c2ccc3c(c2)CCN3C(C)=O)CC1,-9%

# Rewritten with each value named: entries from further up
Fc1ccc(-n2ncc3c(NCCCc4ccccc4)ncnc32)cc1
  VDR inh = 7%
O=C(O)c1ccc(CCCc2ccccc2)cc1
  VDR inh = 0%
Cc1ccc2c(c1)C1OCCC1C1N2C(=O)C2C(C(=O)O)C3C=CC21O3 (centres undefined)
  VDR inh = 26%

# The results go on:
SMILES,VDR inh
CCCCn1c(-c2cccnc2)n[nH]c1=S,-14%
Cc1c(C(=O)N(C)C2CCCCC2)sc2ncnc(N3CCN(c4ccccc4)CC3)c12,10%
O=C(Cc1c[nH]c2ccccc12)NCc1ccco1,-5%
C/C(=N\NC(=O)c1c[nH]c2ccccc12)c1ccccn1,3%
Cc1cc(NC(=O)c2cccc(Br)c2)n[nH]1,-2%
CCOC(=O)Cn1c(=O)n(C2CCCCC2)c2nc(-c3c(F)cccc3Cl)nc(C(N)=O)c21,3%
Cn1c(=O)[nH]c(=O)c2c1nc(NCCCn1ccnc1)n2CCOc1ccccc1,-13%
COc1cccc(C(=O)Oc2c(CN3CCOCC3)cc(Cl)c3cccnc23)c1,5%
CC1=CC(C)(C)N2C(=O)C3(SCC(=O)N3c3ccc(O)cc3)c3cc(C)cc1c32 (centres undefined),5%
Cc1nn(CC(O)Cn2cnc3c2c(=O)n(C)c(=O)n3C)c(C)c1Br (centres undefined),-5%
COc1ccc(C)cc1NC(=O)c1cc2ccccc2o1,-6%
CCN(CC(=O)Nc1c(C(=O)OC)[nH]c2ccc(C)cc12)c1ccc2c(c1)OCO2,-2%
CC1CCCC(C)N1c1ccc(S(=O)(=O)N2CCOCC2)cc1Cl (centres undefined),-13%
Cc1sc2ncn(CC(=O)N3CCN(c4ccccc4F)CC3)c(=O)c2c1S(=O)(=O)N1CCOCC1,10%
COc1cc(OC)cc(C(=O)Nc2ncc3c(n2)CC(C)CC3=O)c1 (centres undefined),1%
c1csc(-c2nn3c(Cn4cnc5ccccc54)nnc3s2)c1,-37%
Cc1cc(S(=O)(=O)Nc2ccc(C(=O)NCC(c3ccco3)N3CCCCC3)cc2)ccc1F (centres undefined),-10%
COc1ccc2c(c1)OC(c1ccccc1)(C(F)(F)F)NC2=O (centres undefined),-18%
O=C(CN1CCOCC1)n1c2ccccc2c2ccccc21,2%

# Sorted by length of the SMILES (ascending): 3 of the compounds above.
SMILES,VDR inh
CCCCn1c(-c2cccnc2)n[nH]c1=S,-14%
COc1cccc(NC(=O)N(Cc2cn(C)c3ccccc23)C2CCCCCC2)c1,-17%
O=C(c1ccc(S(=O)(=O)N2CCCCC2)cc1)N1CCN(CCN2C(=O)c3cccc4cccc(c34)C2=O)CC1,2%

# Screening data deposited in PubChem BioAssay by National Center for Advancing Translational Sciences (NCATS).

# Only part of the results is shown; count on the stated rates, not on these rows.
